Screens deposited in PubChem BioAssay by several laboratories.
Arbovirus anti: blocks arbovirus infection; arbovirus infection cell-based antiviral screen; inhibition, % at 10 µM; 200,000 tested, 0.37% active; AID 1251;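 active = inhibition from about 30%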;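 also: bluetongue infection of BSR cells; cell survival read as ATP light after 72 h; 0% = infected wells without compound and 100% = uninfected wells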
Mtb bLac sens: beta-lactam sensitization of Mtb H37Rv; 330,000 tested, 0.27% active; M. tuberculosis H37Rv growth with meropenem, percent inhibition; hits of this screen are not shown here; inhibition, % at 25 µM; AID 434955;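 active = about 74% or more and at least 40 points above the plate without the antibiotic, then above 30% in a dose series; inconclusive = first-round hits that could not be retested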;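 also: growth measured after seven days incubation then overnight dye step; 0% = bacteria only wells and 100% = bacteria with antibiotic; twin plates without the antibiotic show which effects depend on it; some results filed as inactive read as strong as hits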
Mtb growth: M. tuberculosis H37Rv growth inhibitors, H37Rv strain (AID 1626); M. tuberculosis H37Rv growth inhibition; higher % means a stronger effect; inhibition, % at 10 µM; hits with a dose series show IC50 in µM; 220,000 tested, 0.95% active;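 active = confirmed in a dose series; inconclusive = inhibition above 80% but not taken into the dose series; inactive = below 80% or under 30% at every dose of the series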;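 also: bacteria incubated seven days before Alamar blue readout; 0% = bacteria only wells and 100% = bacteria with antibiotic wells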
YopH inh: YopH (Yersinia) phosphatase inhibition | inhibition, %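 (about 10 µM by stock and volumes)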 | 140,000 tested, 0.16% active | fluorescence Ex485/Em525;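 active = inhibition of 50% or more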;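 also: controls were vehicle for no effect and minimum signal wells for full effect; inactives centre near -20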
RecA intein inh: inhibitors of M. tuberculosis RecA intein splicing | P9WHJ3 | cell-free RecA intein splicing, fluorescence | inhibition, %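 (about 9 µM by stock and volumes)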 | 290,000 tested, 0.75% active | AID 2221; in the data active = inhibition above about 30%; inconclusive = no clear call, values can overlap the other calls;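 also: 0% = vehicle wells and 100% = reference inhibitor control wells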
Target sequence (P9WHJ3 whole entry, looked up): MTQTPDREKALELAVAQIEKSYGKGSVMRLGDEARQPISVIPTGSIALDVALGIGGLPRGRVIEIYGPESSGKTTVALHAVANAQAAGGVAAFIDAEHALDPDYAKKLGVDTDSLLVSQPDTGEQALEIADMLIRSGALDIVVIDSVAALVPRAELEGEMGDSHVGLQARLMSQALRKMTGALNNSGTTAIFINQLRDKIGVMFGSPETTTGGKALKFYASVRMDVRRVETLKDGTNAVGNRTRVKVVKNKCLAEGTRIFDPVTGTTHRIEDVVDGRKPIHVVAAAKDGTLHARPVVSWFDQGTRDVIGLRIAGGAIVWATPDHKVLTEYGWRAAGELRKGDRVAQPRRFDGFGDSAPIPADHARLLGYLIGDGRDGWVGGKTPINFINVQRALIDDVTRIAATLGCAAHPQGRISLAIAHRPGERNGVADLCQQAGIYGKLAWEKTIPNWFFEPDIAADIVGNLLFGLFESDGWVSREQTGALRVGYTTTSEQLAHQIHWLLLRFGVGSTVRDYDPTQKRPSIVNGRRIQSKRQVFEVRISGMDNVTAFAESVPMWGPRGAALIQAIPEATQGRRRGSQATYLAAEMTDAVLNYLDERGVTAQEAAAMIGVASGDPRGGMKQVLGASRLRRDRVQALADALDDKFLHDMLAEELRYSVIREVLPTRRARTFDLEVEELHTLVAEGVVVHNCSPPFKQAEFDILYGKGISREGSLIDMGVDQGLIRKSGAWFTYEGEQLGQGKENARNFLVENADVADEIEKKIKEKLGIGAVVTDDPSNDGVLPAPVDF
Arbovirus anti repeat: further read-out of Arbovirus anti, marked with its call; inhibition, %; measured here: 10K subset replicate screen; many hits read low in the repeat;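 first of two repeat runs on a subset; 0% = infected and 100% = uninfected wells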
* = called active by the depositor; ? = inconclusive; nt = not tested or not shown.

SMILES	Arbovirus anti	Mtb bLac sens	Mtb growth	YopH inh	RecA intein inh	others
CCC(=O)NCCn1c(C)cc2ccccc21	6	-9	6%	-8	-1.6	Arbovirus anti repeat=-1
COC(=O)c1cc(-c2c(C)oc3cc(OC(C)C)ccc3c2=O)c(C)o1	1	19	4%	-30	4.5
O=C(COC(=O)/C=C/c1ccccc1Cl)NCc1ccccc1	2	12	-3%	2	-1.7
COC(=O)c1ccc(-c2noc(CN3C[C@H]4CC[C@H]3C4)n2)cc1	3	64	16%	nt	-1.1
COc1ccc(NC(=O)CN2CCN(Cc3ccccc3)CC2)cc1	nt	1	nt	nt	0.7
CCOc1ccc(OCCN2C(=O)NC3(CCCc4ccccc43)C2=O)cc1 (stereo not drawn)	-3	-2	-12%	-43	0.2
COc1cccc(C(C[N+](=O)[O-])c2c(C)[nH]n(-c3ccccc3)c2=O)c1 (stereo not drawn)	nt	100	nt	nt	96*
CC(NC(=O)[C@@H](NC(=O)[C@@H]1Cc2ccccc2CN1)C(C)C)c1ccccc1 (stereo partly drawn)	nt	-9	nt	nt	-3.2
CCCNC(=O)N1CCC(n2nccc2NC(=O)CCOc2ccccc2)CC1	nt	-3	nt	nt	0.3
COC(=O)Cc1ccc(NC(=O)c2ccc3c(c2)C(=O)N(Cc2ccco2)C3=O)cc1	nt	-1	nt	nt	-3.3
Cc1cc(C)n(-c2nnc(SCC(=O)NC3CCCC3)c3ccccc23)n1	0	-11	5%	-19	2.9
CS(=O)(=O)c1ccc(Cl)c(NC(=O)CCl)c1	13	95	1%	nt	11
Cc1ccc([N+](=O)[O-])cc1NC(=O)c1ccc(-c2ccccc2)cc1	2	1	-12%	-34	-1.5
Nc1ccc(S(=O)(=O)Nc2nccc(/C=C/c3ccc(Cl)cc3Cl)n2)cc1	nt	0	-16%	nt	0.5
COc1ccc(N=C2SC(C(=O)O)CC(=O)N2C)cc1 (stereo not drawn)	4	-12	10%	-15	0.3	Arbovirus anti repeat=-2
O=C(CSc1nc(SCC(=O)NCc2ccccc2)n(-c2ccccc2)n1)NCc1ccccc1	8	-7	-1%	-9	-0.5
Cc1ccc(S(=O)(=O)N2CCC(C(=O)N[C@H](C(=O)N3CCN(C)CC3)C(C)C)CC2)cc1	-1	-8	-7%	-19	1.5
NNC(=O)Cn1c(-c2ccccn2)nc2ccccc21	nt	-7	nt	nt	1.8
COCC(=O)Nc1ccc(C)c(Cl)c1	-3	84	56%	-29	-0.8
COc1ccc(N2CC(O)(c3ccc(F)cc3)[N+]3=C2CCCC3)cc1 (stereo not drawn)	-4	-9	-3%	nt	-0.3
Cc1ccc(/C=C2\CCOC2=O)cc1	nt	1	13%	nt	0.3
c1ccc(Cc2ccc(OCCn3ccnc3)cc2)cc1	nt	78	nt	nt	5.4
COc1ccc(CC(=O)OCC(=O)Nc2cccc(Cl)c2)cc1	-2	-1	-1%	nt	-0.8
Cc1ccccc1Cn1nc(C)c(NC(=O)c2cc(CC(C)C)on2)c1C	nt	-2	2%	nt	0.7
CC(=O)Nc1sc(NC(=O)c2ccc(Cl)cc2)nc1-c1cccs1	-8	-10	nt	-16	1.5
(list continues)
SMILES	Arbovirus anti	Mtb bLac sens	Mtb growth	YopH inh	RecA intein inh	others
Cc1cccc(C(=O)N2CCC(N3CCC(C(=O)N4CCOCC4)CC3)CC2)c1	nt	?	nt	nt	0.6
CCOCC(=O)Nc1cc(C(=O)Nc2ccccc2)ccc1Cl	-3	3	5%	-25	-1.3
CC1CCN(S(=O)(=O)c2cccc(C(=O)NNC(=O)c3ccco3)c2)CC1	nt	-13	-1%	nt	0.3
COC(=O)c1nc(NC2=NCCCCC2)n[nH]1	12	-9	-4%	-35	0.0
CC(C)CC(NC(=O)CCCNC(=O)CCC(=O)OC1O[C@H]2OC3(C)CC[C@H]4[C@H](C)CCC(C1C)C24OO3)C(=O)O (stereo partly drawn)	nt	-3	nt	nt	-2.4
CCc1ccccc1NC(=O)CSc1nnc(C2CC2)n1CC1CCCO1 (stereo not drawn)	nt	-3	nt	nt	1.3
Clc1nc(Cl)nc(N(c2ccccc2)c2ccccc2)n1	9	-1	5%	-29	-1.6
CCCCCC(=O)N1CCN(CCN=CC2=C(O)CC(c3ccco3)CC2=O)CC1 (stereo not drawn)	1	-4	-3%	-39	-2.1
O=c1c2ccc([N+](=O)[O-])cc2ncn1CCOc1ccc(Cl)cc1	9	5	-7%	nt	-2.6
Cc1ccc(NC(=O)c2cc3c(=O)oc4ccc(C)cc4c3s2)nc1	nt	0	-3%	nt	0.7
Cc1nn(-c2ccc3ccccc3c2)c(=O)c2ccccc12	-2	4	-5%	nt	3.9
Cc1ccc(C(=O)NC(=S)NCC2CCCO2)cc1[N+](=O)[O-] (stereo not drawn)	3	-2	6%	nt	-1.2
O=C(CN1CCCCC1)Nc1ccccc1-c1ccccc1	-1	1	7%	-16	1.9
COc1cc(C2CC(=O)Nc3cc(C)c(C)cc32)cc(OC)c1OC (stereo not drawn)	-17	1	-1%	-34	0.7
CC(=O)Nc1cccc(NC(=O)c2ccc([N+](=O)[O-])cc2Cl)c1	-3	1	2%	-5	2.2
Nc1nc(COc2ccccc2)cs1	16	-5	-6%	-6	0.3
CN(C)c1nnnn1-c1ccc(Oc2ncc(C(F)(F)F)cc2Cl)cc1	9	2	6%	nt	1.5
O=C(O)CSC1CC(=O)N(c2ccc(Cl)cc2)C1=O (stereo not drawn)	0	-6	-4%	-5	-3.6
COc1cc2c(cc1OC)C(/C=C/c1ccco1)=NCC2	nt	nt	3%	nt	-83
O=C(Nc1cccc(Cl)c1N1CCCC1)c1ccco1	nt	15	nt	nt	-3.4
COc1cc(CNCCN2CCOCC2)ccc1OCc1ccc(Cl)cc1	-32	-22	2%	-2	1.9
O=C(Nc1cccc([N+](=O)[O-])c1)ONC1=NCCCCC1	nt	2	-11%	nt	-19
CCOc1ccccc1/C=c1\sc2nc(-c3ccco3)nn2c1=O	7	3	-3%	-19	3.5
COc1ccc(N(CC(=O)Nc2ccccc2C(=O)NCC(C)C)S(C)(=O)=O)cc1	3	8	-8%	-21	-0.3
O=C(CCN1CCOCC1)N1c2ccccc2Sc2ccc(Cl)cc21	nt	-3	nt	nt	2.8
(next part)
SMILES	Arbovirus anti	Mtb bLac sens	Mtb growth	YopH inh	RecA intein inh	others
N#CC/C(N)=N/NC(=O)CCCNc1ncc(C(F)(F)F)cc1Cl	-7	4	7%	nt	4.4
Cc1cc(C(=O)N/N=C/c2c[nH]c3ccccc23)cs1	-4	3	2%	-18	-0.3
COc1cc(C(=O)OC2CCN(C)CC2)cc(OC)c1OC	-3	-1	-8%	-4	0.7
Cc1cc(C)n(-c2ccc(C(=O)Nc3cc(C(F)(F)F)ccc3N3CCOCC3)cc2)n1	15	4	-10%	-35	0.6
CCC(C(=O)NC1CCCCC1)n1c(SCc2cccc(F)c2)nc2ccncc21 (stereo not drawn)	-7	0	2%	-9	1.3
Cc1nn(CCCC(=O)NCCc2ccccc2)c(=O)c2nccn12	nt	-2	nt	nt	-4.4
CCOc1c(Br)cc(CNc2ccc3c(c2)OCCO3)cc1OC	-7	-7	-3%	2	6.9
COc1ccc(CCNC(=O)C2CC(c3ccccc3F)=NO2)cc1 (stereo not drawn)	nt	-7	-9%	nt	-0.5
O=C(c1ccc2c(=O)n(-c3ccccc3)c(=O)[nH]c2c1)N1CCN(c2ccc(F)cc2)CC1	3	11	2%	-18	0.0
CCOC(=O)c1sc(NC(=O)c2cncc(Br)c2)nc1C	-5	nt	0%	-30	2.1
COc1ccc(N(C(=O)c2ccco2)S(=O)(=O)c2cc(OC)ccc2OC)cc1	-5	-7	-5%	-53	15
CCOC(=O)CSc1snnc1C	nt	4	-2%	-6	0.0
CC(C)COP(=O)(c1ccc(N(C)C)cc1)C(O)c1ccccc1 (stereo not drawn)	nt	-2	nt	nt	1.5
O=C(CSc1cccc[n+]1[O-])NCC1CCCCC1	1	-4	8%	nt	0.1
COc1ccc2nc(NC(=O)[C@@H]3CCCN3C(=O)c3cccs3)sc2c1	3	1	9%	-14	0.9
COc1ccccc1Nc1c2ccccc2nc2ccccc12	nt	-10	nt	nt	13
O=C(c1ccccn1)N(CC1CCCO1)C1(C(=O)NC2CCCCC2)CCCCC1 (stereo not drawn)	2	3	-17%	-27	1.6	Arbovirus anti repeat=-1
CCOC(=O)CSc1nc2ccccc2c(=O)n1NC(=O)c1ccccc1	-2	6	-4%	-24	-1.6
COc1ccc(CCNC(=O)c2c(O)c3c([nH]c2=O)CCCC3)cc1	-4	-8	10%	-43	-0.9	Arbovirus anti repeat=2
O=C(COc1ccccc1-c1ccccc1)NCCN1C(=O)S/C(=C\c2cccnc2)C1=O	3	-3	4%	-12	5.4
O=c1oc(-c2ccccc2)nc2c1C1(CCCCC1)Cc1ccccc1-2	8	11	-2%	12	0.0
COCc1cc(CNC(=O)C2CCC(=O)N(Cc3ccccc3F)C2)[nH]n1 (stereo not drawn)	nt	-2	nt	nt	0.6
CCCN(CC(=O)Nc1ccc(F)c(F)c1F)CC(=O)Nc1c(Cl)cccc1Cl	16	-4	3%	-25	4.2
CCC(=O)Nc1ccc(N2CCCCC2)c(C(=O)Nc2ccc(OC)cc2)c1	nt	8	nt	nt	0.1
CCOC(=O)C1C(=O)NC(N2CCN(c3ccccc3)CC2)=NC1c1ccco1 (stereo not drawn)	2	7	-2%	-26	nt

For reference, part of the list above.
SMILES	Arbovirus anti	Mtb bLac sens	Mtb growth	YopH inh	RecA intein inh	others
COc1ccc(N(C(=O)c2ccco2)S(=O)(=O)c2cc(OC)ccc2OC)cc1	-5	-7	-5%	-53	15
CCOC(=O)CSc1snnc1C	nt	4	-2%	-6	0.0
CC(C)COP(=O)(c1ccc(N(C)C)cc1)C(O)c1ccccc1 (stereo not drawn)	nt	-2	nt	nt	1.5
O=C(CSc1cccc[n+]1[O-])NCC1CCCCC1	1	-4	8%	nt	0.1
COc1ccc2nc(NC(=O)[C@@H]3CCCN3C(=O)c3cccs3)sc2c1	3	1	9%	-14	0.9
COc1ccccc1Nc1c2ccccc2nc2ccccc12	nt	-10	nt	nt	13
O=C(c1ccccn1)N(CC1CCCO1)C1(C(=O)NC2CCCCC2)CCCCC1 (stereo not drawn)	2	3	-17%	-27	1.6	Arbovirus anti repeat=-1
CCOC(=O)CSc1nc2ccccc2c(=O)n1NC(=O)c1ccccc1	-2	6	-4%	-24	-1.6
COc1ccc(CCNC(=O)c2c(O)c3c([nH]c2=O)CCCC3)cc1	-4	-8	10%	-43	-0.9	Arbovirus anti repeat=2
O=C(COc1ccccc1-c1ccccc1)NCCN1C(=O)S/C(=C\c2cccnc2)C1=O	3	-3	4%	-12	5.4
O=c1oc(-c2ccccc2)nc2c1C1(CCCCC1)Cc1ccccc1-2	8	11	-2%	12	0.0
COCc1cc(CNC(=O)C2CCC(=O)N(Cc3ccccc3F)C2)[nH]n1 (stereo not drawn)	nt	-2	nt	nt	0.6
CCCN(CC(=O)Nc1ccc(F)c(F)c1F)CC(=O)Nc1c(Cl)cccc1Cl	16	-4	3%	-25	4.2
CCC(=O)Nc1ccc(N2CCCCC2)c(C(=O)Nc2ccc(OC)cc2)c1	nt	8	nt	nt	0.1
CCOC(=O)C1C(=O)NC(N2CCN(c3ccccc3)CC2)=NC1c1ccco1 (stereo not drawn)	2	7	-2%	-26	nt

The results go on:
SMILES	Arbovirus anti	Mtb bLac sens	Mtb growth	YopH inh	RecA intein inh	others
O=C(O)c1ccc2c3n(nc2c1)-c1ccc(Cl)cc1CO3	nt	-1	nt	nt	-0.4
CCCCCC[n+]1c(-c2ccccc2)csc1Nc1ccccc1	-1	9	12%	-31	11
CS(=O)(=O)C1=NSC2=NC(=O)/C(=C\c3ccc(OS(=O)(=O)c4ccccc4)cc3)C(=N)N21	nt	-2	nt	nt	8.8
Cn1c(NCc2ccco2)nc2c1c(=O)n(Cc1ccc(Cl)cc1)c(=O)n2C	2	7	7%	-26	0.7
COc1ccc2nc(NCCNC(=S)NCCCN3CCOCC3)c(C#N)cc2c1	8	-10	-4%	nt	-229
CCOc1cc(C(=O)NC(=S)Nc2ccc(Cl)c(C(=O)O)c2)cc(OCC)c1OCC	nt	-1	-8%	nt	0.6
O=C(COc1ccc2ccccc2c1)N1CCN(C(=O)c2ccco2)CC1	7	2	6%	nt	2.5
CN(C(=O)COC(=O)/C=C/c1cccs1)c1c(N)n(Cc2ccccc2)c(=O)[nH]c1=O	nt	-3	nt	nt	-1.9
CCOC(=O)Cc1csc(SCC(=O)NC2CCC(C)CC2)n1 (stereo not drawn)	nt	-11	nt	nt	13
CCN1CCN(C(=O)COc2ccc(S(=O)(=O)N(C)Cc3ccccc3)cc2)CC1	-2	-10	-2%	-2	0.7
CNc1ccccc1C(C)(C)c1cc(-c2cc(C)cc(C)c2)no1	21	0	8%	-16	7.4

These rows are one share of the data. The share of hits here may be higher or lower than overall.
